# Screens (PubChem BioAssay)
# PMP22 txn prim: modulators of PMP22 gene transcription in S16 Schwann cells | S16 Pmp22-F2sN Schwann cells (luciferase reporters placed in the Pmp22 gene), FLuc/NLuc coincidence luminescence, 24 h | actives 2% (n = 43,000) | Potency, µM (doses to about 57.5 µM), inactives show at the highest dose activity change, negative = inhibition, usual class: inhibitors; active = clear falling dose curves in both reporters; inconclusive = both reporters move, but less clearly or upward; inactive = either reporter flat; the % is the NLuc reporter signal; also: % is scaled to controls: 0 for no effect and ±100 for the full control effect; some results filed as inactive show a strong effect at the top dose
#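 S16 Schwann cells carrying FLuc/NLuc coincidence reporter in the Pmp22 3' UTR treated with compound 24 h at 37C; FLuc then NLuc luminescence read sequentially by dual-luciferase reagents.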
# HTT prom inh: inhibitors of huntingtin promoter activity. HEK293 HTT promoter firefly luciferase reporter (activity 0% = vehicle and -100% = no light), 24 h. Potency, µM (titrated, usually from 57.5 µM), for inactives: at the top dose activity change, negative = inhibition, actives largely listed as inhibitors. actives 0.93% (n = 48,000); active = well fitted inhibition curve with a large enough effect; inconclusive = small, poorly fitted or top-dose-only effect; inactive = no such curve, though single readings can be large or run the other way; also: nearly all actives have a fitted effect of over 50% in size
#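 Quantitative HTS used concentration series of up to 57.5 uM final on HEK293 luciferase reporter cells, 24 h at 37 degrees C. Readout was Dual-Glo firefly luminescence.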
# * hit, by the source's call; ? = inconclusive; . = no result given. Potency is read from the fitted curve at half-maximal effect.
# Results follow in this order: PMP22 txn prim	HTT prom inh
(1) COc1cc(C(=O)NCCCCCC(=O)O)cc(OC)c1OC
 : .	6%
(2) Cc1ccsc1/C=C/C1=NCCCN1C
 : .	8%
(3) CCC(C)n1ncn(-c2ccc(N3CCN(c4ccc(OC[C@H]5CO[C@](Cn6cncn6)(c6ccc(Cl)cc6Cl)O5)cc4)CC3)cc2)c1=O (stereo partly drawn)
 : .	?
(4) NC(=O)c1ccc([N+](=O)[O-])cc1Cl
 : .	0%
(5) CC(C)(C)CC(=O)OCC(=O)[C@@]1(O)CC[C@H]2[C@@H]3CCC4=CC(=O)C=C[C@]4(C)[C@H]3[C@@H](O)C[C@@]21C
 : .	-17%
(6) O=C(Nc1ccc(Oc2ccnc3[nH]ccc23)c(F)c1)c1cccn(-c2ccc(F)cc2)c1=O
 : .	-1%
(7) CC(C)(C)c1ccc(S(=O)(=O)c2cnc(SCC(=O)Nc3ccc(F)c(Cl)c3)[nH]c2=O)cc1
 : ?	4%
(8) CC[C@]12CCCN3CCc4c(n(c5ccccc45)[C@@](O)(C(=O)OC)C1)[C@@H]32
 : .	7%
(9) CN1C(=O)CC(C)(c2ccccc2)C1=O (stereo not drawn)
 : .	-8%
(10) Oc1cc2c(cc1O)C1c3ccc(O)c(O)c3OCC1(O)C2 (stereo not drawn)
 : .	-6%
(11) COc1ccc(F)c(F)c1C(=O)c1cnc(NC2CCN(S(C)(=O)=O)CC2)nc1N
 : .	?
(12) O=C(O)CCNc1cc(N2CCc3ccccc3CC2)nc(-c2ccccn2)n1
 : .	0%
(13) CCCC(=O)Nc1ccc(O)c(C(C)=O)c1
 : .	1%
(14) Cc1ccc(CNC(=O)C2CCN(S(=O)(=O)c3c(C)noc3/C=C/c3ccccc3F)CC2)o1
 : ?	?
(15) CC1(C)Oc2ccc(C#N)cc2[C@@H](N2CCCC2=O)[C@@H]1O
 : .	1%
(16) Cc1cc(O)c2c(c1)C(=O)c1cccc(O)c1C2=O
 : .	-8%
(17) COc1cc2[nH]c(=O)[nH]c(=O)c2cc1OC
 : .	9%
(18) CCCCC(=O)O[C@]1(C(=O)CO)[C@@H](C)C[C@H]2[C@@H]3CCC4=CC(=O)C=C[C@]4(C)[C@@]3(F)[C@@H](O)C[C@@]21C
 : .	-3%
(19) CCOC(=O)Nc1ccc2c(c1)N(C(=O)CCN1CCOCC1)c1ccccc1S2
 : .	-7%
(20) Cc1ccc(C(=O)C(C)CN2CCCCC2)cc1 (stereo not drawn)
 : .	4%

# Part of the list above in a different format.
(13) CCCC(=O)Nc1ccc(O)c(C(C)=O)c1
  PMP22 txn prim: .
  HTT prom inh: 1%

(14) Cc1ccc(CNC(=O)C2CCN(S(=O)(=O)c3c(C)noc3/C=C/c3ccccc3F)CC2)o1
  PMP22 txn prim: ?
  HTT prom inh: ?

(15) CC1(C)Oc2ccc(C#N)cc2[C@@H](N2CCCC2=O)[C@@H]1O
  PMP22 txn prim: .
  HTT prom inh: 1%

(16) Cc1cc(O)c2c(c1)C(=O)c1cccc(O)c1C2=O
  PMP22 txn prim: .
  HTT prom inh: -8%

# Screen by screen, from the results shown.
# Entries 5–8 in HTT prom inh read -17%, -1%, 4%, 7%

# The list continues.
# Results follow in this order: PMP22 txn prim	HTT prom inh
(21) CN=C(N)NC(=O)Nc1c(C)cccc1C
 : .	5%
(22) C#C[C@]1(O)CC[C@H]2[C@@H]3CCC4=CC(=O)CC[C@@H]4[C@H]3CC[C@@]21CC
 : .	8%
(23) CCC(=O)O[C@]1(C(=O)COC)[C@@H](C)C[C@H]2[C@@H]3CCC4=CC(=O)C=C[C@]4(C)C3(F)[C@@H](O)C[C@@]21C (stereo partly drawn)
 : .	-1%
(24) CC(C)(CO)[C@@H](O)C(=O)NCCCO
 : .	9%
(25) CCOc1ccc(Nc2nc(-c3c(C)nc4ccccn34)cs2)cc1
 : .	-27%
(26) CC1CCc2c(N3CCC(O)CC3)c(F)cc3c(=O)c(C(=O)O)cn1c23 (stereo not drawn)
 : .	-6%
(27) CCCCN(CCCC)CC(O)c1cc(Cl)cc2c1-c1ccc(Cl)cc1/C2=C/c1ccc(Cl)cc1 (stereo not drawn)
 : .	-6%
(28) COc1cc(C)nc(-n2nc(C)cc2OC)n1
 : .	7%
(29) COC(=O)/C=C(/C)N
 : .	18%
(30) Nc1ncnc(Nc2ccccc2)n1
 : .	15%
(31) O=C(c1ccccc1)c1ccc2n1CCC2C(=O)O (stereo not drawn)
 : .	?
(32) COc1cccc2c(NCc3ccccc3)nc(-n3c(N)nc4ccccc43)nc12
 : .	-2%

# Two entries picked at random from those above:
# Results follow in this order: PMP22 txn prim	HTT prom inh
(26) CC1CCc2c(N3CCC(O)CC3)c(F)cc3c(=O)c(C(=O)O)cn1c23 (stereo not drawn)
 : .	-6%
(21) CN=C(N)NC(=O)Nc1c(C)cccc1C
 : .	5%

# These rows are one share of the data; count on the stated rates, not on these rows.
